# Compound activity (PubChem BioAssay)
# Ecoli rRNA inh: selective bacterial rRNA inhibition in E. coli. E. coli WT GFP vs humanized-ribosome RFP mutants, fluorescence, 24 h; stronger effect = lower value; DMSO median 0, no signal -100. GFP signal change (wild-type ribosome), % (test concentration not listed). 1.6% of 350,000 active. AID 720706;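 active = significant combined selectivity score with lowered wild-type GFP, culture density cut under 30%, mutant RFP and density less affected; inactive = any of these conditions unmet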; note: one replicate is shown; some compounds called inactive have numbers as strong as hits
# Ecoli rRNA inh OD600: second read-out of Ecoli rRNA inh, no call of its own (marks repeat the call); OD600 change, %; measured here: OD600 growth;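 optical density of the mix in the first replicate; 0 = DMSO median and -100 = no signal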
# Ecoli rRNA inh RFP: recorded beside Ecoli rRNA inh, whose call it bears; RFP signal change, %; measured here: RFP humanized mutant strains;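 first replicate; 0 = DMSO median and -100 = no signal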
# Numbers without * were called inactive; & = joins results of further samples. A portion of the library; count on the stated rates, not on these rows.
SMILES,Ecoli rRNA inh,Ecoli rRNA inh OD600,Ecoli rRNA inh RFP
COc1ccc2c3c(n(C)c2c1)[C@@H](CO)N(C(=O)c1ccc(F)cc1)CC31CCN(CC2CC2)CC1,2.5,6.1,1.4
COc1ccc(S(=O)(=O)Nc2ccc3c(c2)C(=O)N(C)C[C@@H](OC)[C@@H](C)CN[C@H](C)CO3)cc1,3.5,6.7,-1.3
C[C@H](CO)N1C[C@H](C)[C@@H](CN(C)Cc2ccc3c(c2)OCO3)Oc2ccc(NS(=O)(=O)c3ccc(Cl)cc3)cc2C1=O,-0.2,-0.4,2.9
COCC#Cc1cnc2c(c1)C(=O)N([C@@H](C)CO)C[C@H](C)[C@H](CN(C)C(=O)C1CCC1)O2,4.4,13.8,-4.2
C[C@@H]1CN([C@H](C)CO)S(=O)(=O)c2ccc(-c3cccc(F)c3)cc2O[C@@H]1CN(C)S(=O)(=O)c1ccccc1,1.5,-2.5,1.6
O=C(Cc1ccccc1)N1C[C@@H]2[C@H](c3ccccc31)[C@H](CO)N2C(=O)c1ccc(F)cc1,-0.7,5.9,-0.7
O=C(C[C@H]1CC[C@@H]2[C@H](COC[C@H](O)CN2CC2CCOCC2)O1)NCC1CCCCC1,1.6,-1.6,-0.2
C[C@H](CO)N1C[C@H](C)[C@@H](CN(C)C(=O)Nc2ccc(C(F)(F)F)cc2)Oc2ccc(NC(=O)NC3CCCCC3)cc2CC1=O,-0.6,-6.7,2.0
COc1ccc(C(C)(O)c2nc(-c3cncnc3)cs2)cc1 (stereo unspecified),7.6,12.9,-0.7
C/C=C/c1ccc([C@@H]2[C@H](CO)N(S(C)(=O)=O)[C@H]2CN(CC)C(=O)CC)cc1,0.0,1.8,-1.8
C[C@@H]1Cc2[nH][nH]c(=O)c2[C@H](C)O1,15.1,12.7,2.0
O=C(NCc1cccc(Cl)c1)c1ccc(-c2ccc(F)c(F)c2)c2ccoc12,8.9,4.9,6.3
C[C@H](NC(=O)C[C@@H]1CC[C@@H](NC(=O)C2CCOCC2)[C@H](CO)O1)c1ccccc1,1.1,2.9,0.7
O=S(=O)(c1ccccc1F)N1CCCCN2[C@H](C1)[C@H](c1ccc(-c3ccncc3)cc1)[C@@H]2CO,-1.6,-9.6,-0.4
COc1cccc(-c2cnc3c(c2)C(=O)N([C@H](C)CO)C[C@H](C)[C@@H](CN(C)Cc2ccncc2)O3)c1,-1.7,2.9,-1.1
Cc1noc(C)c1NC(=O)N(C)C[C@@H]1Oc2c(NS(=O)(=O)c3cn(C)cn3)cccc2C(=O)N([C@H](C)CO)C[C@H]1C,3.3,22.4,0.1
CO[C@@H]1CN(C)C(=O)c2cc(NC(=O)Nc3cc(Cl)cc(Cl)c3)ccc2OC[C@H](C)NC[C@H]1C,-7.3&-58.1&-54.1,-30.0&-80.2&-78.8,18.5&-11.7&-7.0
COc1ccc(C(NC(=O)C2CCN(CCOc3ccc(Cl)cc3Cl)CC2)c2cccs2)cc1 (stereo unspecified),-50.6,-73.2,-3.1
CN1CCN(C(=O)C[C@H]2C[C@H]3c4cc(NC(=O)Nc5ccc(F)cc5)ccc4O[C@H]3[C@@H](CO)O2)CC1,0.5,1.0,0.2
COc1ccc(CN2C[C@@H](C)[C@@H](OC)CN(C)C(=O)c3ccc(NC(C)=O)cc3OC[C@H]2C)cc1,1.1,1.8,0.4
C[C@H](CO)N1C[C@H](C)[C@@H](CN(C)S(=O)(=O)c2ccc(F)cc2)OCCCC[C@H](C)Oc2ccc(NS(=O)(=O)c3ccccc3)cc2C1=O,-1.5,-3.2,-0.9
Cc1ccc(-c2ccc3c(c2)O[C@H](CN(C)Cc2cccnc2)[C@H](C)CN([C@@H](C)CO)S3(=O)=O)cc1,-27.8,-39.3,31.2
C[C@@H]1CN([C@@H](C)CO)C(=O)c2cc(NS(=O)(=O)c3ccc(Cl)cc3)ccc2O[C@@H](C)CCCCO[C@H]1CN(C)C(=O)C1CCCCC1,-4.0,-11.2,-1.1
O=C1c2ccccc2-c2ccccc2NC1O (stereo unspecified),4.4,3.4,1.3
COc1ccc(C)cc1S(=O)(=O)N1CCCC(N2CCN(c3ccccc3)CC2)C1 (stereo unspecified),0.3,-3.5,4.8
SMILES,Ecoli rRNA inh,Ecoli rRNA inh OD600,Ecoli rRNA inh RFP
COCC(=O)Nc1ccc2c(c1)OC[C@@H](C)N(CC1CCCCC1)C[C@H](C)[C@@H](OC)CN(C)C2=O,-5.7,-5.4,4.6
C[C@H]1CN([C@@H](C)CO)C(=O)c2c(c3ccccc3n2C)-c2ccccc2CO[C@@H]1CN(C)C(=O)Nc1ccccc1C(F)(F)F,0.1,3.9,0.2
OC[C@@H]1[C@H](c2ccc(-c3ccccc3F)cc2)[C@H]2CN(Cc3ccncc3)CCCCN12,-2.1,-14.9,8.7
O=C(C[C@@H]1C[C@@H]2c3cc(NC(=O)NC4CCCCC4)ccc3O[C@@H]2[C@@H](CO)O1)NCCc1ccccc1,1.5,2.3,1.3
O=C(C[C@@H]1C=C[C@@H](NS(=O)(=O)c2ccc(F)cc2)[C@H](CO)O1)N1CCc2ccccc2C1,-4.4,-3.1,0.4
COc1ccc(S(=O)(=O)Nc2ccc3c(c2)C(=O)N([C@@H](C)CO)C[C@@H](C)[C@H](CN(C)C(=O)Nc2cccc4ccccc24)OCCCC[C@@H](C)O3)cc1,-1.5,5.1,1.7
CCCN1[C@H](C(=O)N[C@H](C)c2ccccc2)[C@@H](CO)[C@@H]2Cn3c(ccc(-c4ccc(F)cc4)c3=O)[C@@H]21,-8.1,-51.8,24.2
Cc1ccccc1-c1ccc(C2[C@H]3CNC[C@@H]2N3Cc2cncnc2)cc1 (stereo partly specified),2.8,1.9,-3.7
CCCNC(=O)N1[C@H](C#N)[C@H](c2ccccc2-c2ccc(OC)cc2)[C@@H]1CO,-0.6,-3.3,-0.2
Cc1cc(C(=O)N2CCC2(C)C(=O)O)nn1C(C)(C)C (stereo unspecified),8.6,10.4,0.0
C[C@@H]1CN([C@@H](C)CO)C(=O)Cc2cc(NC(=O)Nc3ccc4c(c3)OCO4)ccc2O[C@@H]1CN(C)Cc1ccncc1,-3.8,-6.2,-0.9
COCC(=O)N(C)C[C@@H]1Oc2cc(C#C[C@H](C)O)ccc2S(=O)(=O)N([C@@H](C)CO)C[C@@H]1C,1.8,5.9,-0.8
C[C@@H]1CCCCO[C@@H](CN(C)C(=O)c2ccncc2)[C@H](C)CN([C@@H](C)CO)C(=O)c2cc(NC(=O)C3CCCCC3)ccc2O1,-1.0,-0.4,-1.9
CC(OC(=O)c1ccc(NC(=O)CC#N)cc1)C(=O)Nc1ccc(S(=O)(=O)N2CCCC2)cc1 (stereo unspecified),2.2,18.6,3.0
C[C@H]1CCCCO[C@@H](CN(C)C(=O)Nc2cccc3ccccc23)[C@@H](C)CN([C@@H](C)CO)C(=O)c2cc(NS(=O)(=O)c3ccc(F)cc3)ccc2O1,2.9,-6.1,2.6
CC(=O)N1[C@@H]2c3cccc(=O)n3C[C@H]1[C@H](CO)[C@H]2C(=O)N[C@H](C)c1ccccc1,-0.4,0.8,1.3
Cc1onc(-c2ccccc2)c1C(=O)N1CCCC(C)(C(=O)NS(=O)(=O)C2CC2)C1 (stereo unspecified),16.7,32.5,-1.0
C[C@@H]1CN([C@H](C)CO)C(=O)c2cc(NS(=O)(=O)c3ccccc3)ccc2O[C@@H]1CN(C)Cc1ccc(C(=O)Nc2ccccc2N)cc1,0.8,1.3,0.6
Cc1cc(C(=O)Nc2ccc3c(c2)C(=O)N(C)[C@H]2CC[C@@H](CC(=O)O)O[C@H]2CO3)no1,3.4,-0.6,-2.1
C[C@H](CO)N1C[C@H](C)[C@H](CN(C)Cc2ccc(-c3ccccc3)cc2)Oc2c(NC(=O)c3ccc(-c4nccs4)cc3)cccc2C1=O,4.5,-0.9,2.3
C[C@H]1CN([C@@H](C)CO)C(=O)c2cccc(NC(=O)C3CCOCC3)c2O[C@H]1CN(C)C(=O)NC1CCCCC1,-0.3,8.8,-1.5
Cc1noc(C)c1NC(=O)Nc1ccc2c(c1)C(=O)N([C@@H](C)CO)C[C@@H](C)[C@H](CN(C)CC1CC1)OCCCC[C@H](C)O2,6.1,12.1,-0.4
C[C@H]1CN([C@@H](C)CO)C(=O)c2cccc(NS(=O)(=O)c3ccccc3)c2O[C@@H]1CN(C)Cc1ccccc1,0.6,2.6,0.3
C[C@H](CO)N1C[C@H](C)[C@H](CN(C)C(=O)Cc2ccccc2)OCCCC[C@H](C)Oc2ccc(NC(=O)C3CCCCC3)cc2C1=O,-1.4,-4.3,3.5
CCC(=O)Nc1ccc2c(c1)OC[C@H](C)N(Cc1ccccc1C(=O)O)C[C@@H](C)[C@@H](OC)CN(C)C2=O,6.5,7.4,-0.6

# 2 entries from above, set out differently:
compound	Ecoli rRNA inh	Ecoli rRNA inh OD600	Ecoli rRNA inh RFP
C[C@@H]1CCCCO[C@@H](CN(C)C(=O)c2ccncc2)[C@H](C)CN([C@@H](C)CO)C(=O)c2cc(NC(=O)C3CCCCC3)ccc2O1	-1.0	-0.4	-1.9
O=C(NCc1cccc(Cl)c1)c1ccc(-c2ccc(F)c(F)c2)c2ccoc12	8.9	4.9	6.3

# Next section
SMILES,Ecoli rRNA inh,Ecoli rRNA inh OD600,Ecoli rRNA inh RFP
CC(=C1N=C(c2ccccc2)OC1=O)c1cccs1,15.1,11.2,-1.6
O=C(Nc1cccc(F)c1)N1CCCCN2[C@H](CO)[C@H](c3ccc(-c4ccccc4F)cc3)[C@H]2C1,-58.5,-74.0,-13.7
C[C@@H]1CN([C@H](C)CO)C(=O)c2cc(NC(=O)Nc3ccccc3)ccc2O[C@@H](C)CCCCO[C@H]1CN(C)C,3.8,10.3,-0.1
CC(=O)c1cccc(-c2ccnc3c2CC(C(=O)NCc2ccncc2)O3)c1 (stereo unspecified),4.2,12.9,-2.2
CCCNC(=O)C[C@H]1C[C@H]2c3cc(NC(=O)c4cccnc4)ccc3O[C@H]2[C@H](CO)O1,0.8,-2.2,0.4
O=C(c1ccccc1)N1[C@@H](CO)[C@@H](c2ccccc2)C12CN(Cc1nccs1)C2,-3.7,11.4,2.0
Cc1ccc(S(=O)(=O)NCC[C@@H]2CC[C@H](NC(=O)c3cnccn3)[C@H](CO)O2)cc1,-0.2,-4.5,-2.3
CNC[C@H]1OCCCC[C@H](C)Oc2ccc(NC(=O)c3ccccc3)cc2C(=O)N([C@H](C)CO)C[C@H]1C,6.7,12.4,-1.0
Cc1ccc(NC(=O)CN(C)C(=O)C2CSC3(C)CCC(=O)N23)cc1 (stereo unspecified),16.9,13.8,-0.3
Cc1noc(C)c1NC(=O)Nc1ccc2c(c1)CC(=O)N([C@H](C)CO)C[C@@H](C)[C@@H](CN(C)S(=O)(=O)c1cccs1)O2,-0.1,0.4,0.3
CCC(=O)N1C[C@@H]2[C@H](c3ccccc31)[C@H](CO)N2C(=O)CC,4.2,3.9,-0.8
CC(C)n1c(=O)c2ccccc2n1CC(=O)N1CCOCC1,5.4,13.2,-3.5
Cc1ccc(Cc2c(-c3ccc(C#N)cc3)nc3ccc(Br)cn23)cc1,-28.4*,-11.2*,-0.7*
Cc1ccc(CS(=O)Cc2ccc(C(=O)NCCCc3ccccc3)o2)cc1 (stereo unspecified),-3.5,-22.9,2.8
O=C(NCc1ccccc1)C(c1ccco1)N1CCN(c2ccccc2F)CC1 (stereo unspecified),-4.8,-8.5,0.1
CCCNC(=O)N1CC2(CN(CC3CCCCC3)C2)c2c(n(C)c3cc(OC)ccc23)[C@H]1CO,-8.1,-14.9,-1.0
CCCNC(=O)N(C)C[C@H]1Oc2ncc(-c3ccc(C(=O)N(C)C)cc3)cc2C(=O)N([C@@H](C)CO)C[C@H]1C,-0.3,2.1,-4.5
N#C[C@H]1N[C@H](CO)[C@@H]1c1ccc(C#Cc2ccccc2F)cc1,-0.2,3.9,-2.6
COc1ccc(CN(C)C[C@H]2Oc3ccc(NC(=O)Nc4ccc5c(c4)OCO5)cc3C(=O)N([C@@H](C)CO)C[C@H]2C)cc1,1.4,1.1,2.6
C[C@@H]1CN([C@H](C)CO)S(=O)(=O)c2ccc(C#CC3CCCC3)cc2O[C@@H]1CN(C)Cc1cncnc1,-19.5,-24.9,9.2
COCC(=O)N1CCCCN2[C@@H](CO)[C@@H](c3ccc(C#Cc4cccnc4)cc3)[C@@H]2C1,7.2,-2.7,2.6
Cc1ccc(S(=O)(=O)N(C)C[C@@H]2OCCCC[C@H](C)Oc3ccc(NC(=O)Nc4c(C)noc4C)cc3C(=O)N([C@H](C)CO)C[C@@H]2C)cc1,-4.8,1.6,1.7
C[C@@H]1CN([C@H](C)CO)C(=O)c2cccc(NC(=O)Nc3ccc(F)cc3)c2O[C@H]1CN(C)C(=O)Nc1ccc(F)cc1,-4.7,-3.7,0.3
O=C(c1ccncc1)N1C[C@H]2[C@@H](c3ccccc31)[C@H](CO)N2C(=O)c1ccccc1F,5.0,7.9,-3.6
C[C@H](CO)N1C[C@H](C)[C@H](CN(C)S(=O)(=O)c2cn(C)cn2)Oc2cc(C#Cc3cccc(F)c3)ccc2S1(=O)=O,-0.8,-8.4,-1.8
COCC(=O)Nc1ccc2c(c1)C(=O)N(C)[C@@H]1CC[C@@H](CC(=O)NCCc3ccccc3)O[C@H]1CO2,0.9,-2.0,1.3

# Four compounds from above, ordered by number of heavy atoms, rising.
SMILES,Ecoli rRNA inh,Ecoli rRNA inh OD600,Ecoli rRNA inh RFP
N#C[C@H]1N[C@H](CO)[C@@H]1c1ccc(C#Cc2ccccc2F)cc1,-0.2,3.9,-2.6
O=C(c1ccccc1)N1[C@@H](CO)[C@@H](c2ccccc2)C12CN(Cc1nccs1)C2,-3.7,11.4,2.0
Cc1ccc(S(=O)(=O)NCC[C@@H]2CC[C@H](NC(=O)c3cnccn3)[C@H](CO)O2)cc1,-0.2,-4.5,-2.3
Cc1noc(C)c1NC(=O)Nc1ccc2c(c1)CC(=O)N([C@H](C)CO)C[C@@H](C)[C@@H](CN(C)S(=O)(=O)c1cccs1)O2,-0.1,0.4,0.3
